Assay outcomes from PubChem.
Cruzain inh noDet = blocks cruzain activity in detergent-free assay; actives 2.3% (n = 200,000); purified cruzain, Z-FR-AMC fluorescence, no detergent; Potency, µM, inactives show max response, negative = inhibition, usual class: inhibitors; active = well fitted curve in the direction sought with a large enough effect; inconclusive = small, poorly fitted or top-dose-only effect, or another doubt; inactive = no such curve, though single readings can be large; an effect the other way counts as inactive or inconclusive;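 note: plate controls were enzyme without inhibitor for no effect and buffer without enzyme for full effect; nearly all actives have a fitted effect of over 40% in size; top concentration of the series not given in the record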
Target sequence (P25779 123-467 limits assumed): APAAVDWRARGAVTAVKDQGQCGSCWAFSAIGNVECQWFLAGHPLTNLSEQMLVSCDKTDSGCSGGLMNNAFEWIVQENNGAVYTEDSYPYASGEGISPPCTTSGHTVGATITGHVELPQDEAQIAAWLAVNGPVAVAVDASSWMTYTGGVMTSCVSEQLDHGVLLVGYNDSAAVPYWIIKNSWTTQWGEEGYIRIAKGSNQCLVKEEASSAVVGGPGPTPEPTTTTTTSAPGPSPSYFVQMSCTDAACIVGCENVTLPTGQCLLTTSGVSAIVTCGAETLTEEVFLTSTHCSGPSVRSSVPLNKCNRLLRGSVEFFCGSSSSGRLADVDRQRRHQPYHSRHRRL
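Purified cruzain at 1.5 nM, pre-incubated 15 min with compound at room temperature in 100 mM sodium acetate pH 5.5, 5 mM DTT, 0.00005% Triton X-100. Reaction started with 2 uM Z-FR-AMC; AMC fluorescence increase over 60 s gives rate.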
NS1 inh = influenza NS1 inhibition | actives 0.4% (n = 270,000) | Potency, µM (doses to about 46.1 µM), for inactives: at the highest dose activity, positive = more growth | S. cerevisiae slowed by influenza A NS1, growth recovery by OD600; note: actives are rising curves; nearly all actives have a fitted effect of over 50% in size
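Read-out: OD600 growth recovery of NS1-expressing budding yeast. Cells grown overnight at 30C in -URA glucose medium, washed, resuspended and diluted 1:100 in 2% galactose assay medium, pH 6.0. Same strain lacking NS1 served as positive control.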
Lassa entry inh = Lassa virus entry inhibition. Lassa virus pseudotype entry inhibition, cell reporter; control for the full effect not named in the record. Potency, µM (doses to about 37.9 µM), without a hit: at the highest dose activity change, negative = inhibition, actives largely listed as inhibitors. actives 1.2% (n = 300,000); active means well fitted inhibition curve with a large enough effect; inconclusive means small, poorly fitted or top-dose-only effect, or effect the other way; inactive means flat fitted curve, though single readings scatter; tested in HEK293 cells; note: % is set by controls: 0 for no effect and ±100 for the full control effect; nearly all actives have a fitted effect of over 50% in size; luciferase read-out
StopGo reporter = FMDV 2A StopGo reporter, luciferase signal. Potency, µM (titrated, usually from 57.9 µM), for the others: at the highest dose signal change, negative = less light. AID 1159524. actives 1.2% (n = 410,000). human cells with a luciferase reporter of 2A StopGo recoding; control for the full effect not named in the record; active = well fitted falling curve with a large enough effect; inconclusive = small, poorly fitted or top-dose-only effect; inactive = no such curve, though single readings can be large or run the other way; tested in HEK293T cells; note: % is set by controls: 0 for no effect and ±100 for the full control effect; nearly all actives have a fitted effect of over 45% in size; luciferase light after 4 h
RE007 growth inh = less growth of the S. pombe RE007 Vpr strain. S. pombe RE007 Vpr strain, BacTiter-Glo ATP luminescence, 24 h; control for the full effect not named in the record. Potency, µM (doses to about 92.2 µM), for the others: at the highest dose activity change, negative = less growth. actives 0.21% (n = 360,000); active = well fitted falling curve with a large enough effect; inconclusive = small, poorly fitted or top-dose-only effect; inactive = no such curve, though single readings can be large or run the other way;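 note: % is set by controls: 0 for no effect and ±100 for the full control effect; nearly all actives have a fitted effect of over 50% in size; the assay follows cell death caused by Vpr and the record does not say whether a fall means rescue or toxicity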
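Fission yeast RE007 carrying one integrated HIV-1 vpr copy, seeded at OD 0.01 in PMG+AL medium with 23 nL pinned compound. Grown 24 h at 30 degrees; viability read by BacTiter-Glo luminescence after 5 min.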
SARS PLpro yeast = SARS-CoV PLP inhibition in yeast; actives 0.19% (n = 330,000); Potency, µM (doses to about 32.9 µM), for inactives: top-dose activity, positive = growth rescue; S. cerevisiae expressing SARS-CoV PLpro, growth rescue; control for the full effect not named in the record; AID 485353; note: 0% is about no effect; nearly all actives have a fitted effect of over 55% in size; growth read by luminescence after 48 h
Cruzain Triton = blocks cruzain activity in presence of Triton detergent; P25779; purified cruzain, Z-FR-AMC fluorescence, 0.01% Triton; Potency, µM, inactives show max response, negative = inhibition, most hits filed as inhibitors; actives 0.43% (n = 200,000); AID 1478; active = well fitted curve in the direction sought with a large enough effect; inconclusive = small, poorly fitted or top-dose-only effect, or another doubt; inactive = no such curve, though single readings can be large; an effect the other way counts as inactive or inconclusive;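 note: plate controls were neutral wells for no effect and buffer without enzyme for full effect; nearly all actives have a fitted effect of over 40% in size; top concentration of the series not given in the record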
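Steps: dispense cruzain (1.5 nM final) in acetate buffer pH 5.5 with DTT and 0.01% Triton X-100; pin-transfer compounds; incubate 15 min RT; add Z-FR-AMC (2 uM final); read fluorescence every 30 s, using the 60 s intensity change.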
Marburg entry inh = Marburg virus entry inhibition | Marburg virus pseudotyped entry inhibition, cell reporter; control for the full effect not named in the record; about a third of the inactives were read at about 46 µM | actives 1.8% (n = 300,000) | Potency, µM (titrated, usually from 37.8 µM), for inactives: at the top dose activity change, negative = inhibition, most hits filed as inhibitors; active = well fitted inhibition curve with a large enough effect; inconclusive = small, poorly fitted or top-dose-only effect, or effect the other way; inactive = flat fitted curve, though single readings scatter; tested in HEK293 cells; about a fifth of its hits are not listed in these tables; note: % is set by controls: 0 for no effect and ±100 for the full control effect; luciferase read-out
* = called active by the depositor; ? = inconclusive; nt = not tested or not shown; [ ] = dose if it differs, or a comment. Unless noted, calls come from the whole dose curve; as a rule, active means well fitted rising curve with a large enough effect; inconclusive means small, poorly fitted or top-dose-only effect; inactive means no such curve, though single readings can be large or run the other way. Potency is the fitted concentration of half-maximal effect.

SMILES | Cruzain inh noDet | NS1 inh | Lassa entry inh | StopGo reporter | RE007 growth inh | SARS PLpro yeast | Cruzain Triton | Marburg entry inh
CCOc1ccc(OCCCC(=O)N(C)CC(=O)Nc2ccccc2Br)cc1 | nt | nt | 6.3% | 0.0% | -14.6% | -0.4% | nt | 12.4%
COc1ccc(NC(=O)C2C3CCC(O3)C2C(=O)O)c(C)c1 (centres undefined) | nt | 6.8% | -15.9%[46.1 µM] | 30.3%[activator] | -5.2% | -0.7% | nt | ?
COc1ccccc1CNC(=O)c1ccc(C)s1 | nt | -1.4% | 6.1%[46.1 µM] | 15.6% | -0.4% | 1.3% | nt | 9.4%[46.1 µM]
Cc1ccc2c(c1)nnn2C1CCN(CC(=O)NCCc2ccccc2)CC1 | 5.4% | -3.6% | -18.4% | nt | 3.2% | -4.3% | 11.2% | -5.3%
COc1ccccc1NC(=O)C(C)N1C(=O)c2ccccc2C1=O (centres undefined) | nt | 8.8% | nt | -3.5% | 4.6% | 10.1% | nt | nt
CC(=O)Nc1ccc(S(=O)(=O)N(C)CC(=O)N(C)Cc2sccc2C)cc1 | nt | nt | -11.3% | -8.6% | 1.5% | 14.4% | nt | 3.5%
COc1ccccc1CNC(=O)CCc1c(C)nn(-c2ccc(N3CCCC3)nn2)c1C | -6.9% | nt | -9.3%[46.1 µM] | -16.0% | nt | nt | -2.3% | nt
CC1(C)NC(=O)N(CC(O)CN2CCOCC2)C1=O (centres undefined) | -0.3% | 2.3% | 14.2% | 22.6% | -1.2% | 0.5% | -4.2% | -3.3%
CCOC(=O)C(C)Oc1cccc2c(=O)n(CC(=O)NCc3ccc4c(c3)OCO4)ccc12 (centres undefined) | 1.2% | 1.8% | nt | -11.9% | 2.5% | -7.9% | 9.5% | nt
Cn1c(=O)oc2ccccc2c1=O | nt | nt | 9.2%[46.1 µM] | 0.4% | 2.3% | nt | nt | 2.0%[46.1 µM]
O=C(COC(=O)c1ccccc1Cc1ccccc1)Nc1ccc(SC(F)F)cc1 | -5.4% | -33.1% | ? | 27.4% | 5.1% | -11.6% | -1.7% | ?
O=C(NC1CCCC1)C1CCN(C(=O)c2ccc(Cl)cc2Cl)CC1 | nt | 0.9% | -13.8% | -7.8% | 4.4% | -3.0% | nt | ?
CCCCCC(=O)Nc1cc(S(=O)(=O)O)cc2cc(S(=O)(=O)O)cc(O)c12 | nt | nt | 19.5% | -16.7% | -26.0% | nt | nt | ?
COC(=O)COc1ccc2oc(=O)cc(C)c2c1 | -6.2% | -14.1% | 0.6% | -5.0% | -11.2% | -5.0% | -2.3% | 17.7%
CCOC(=O)C1CCN(C(=O)CN2c3ccc(C(C)C)cc3-c3ccccc3S2(=O)=O)CC1 | ? | nt | -13.5%[46.1 µM] | 72.8%[activator] | nt | nt | -1.4% | 5.0%[46.1 µM]
O=C(COC(=O)C1CCC1)Nc1ncc(Cl)cc1Cl | nt | nt | 26.4% | -21.5% | 2.3% | -0.1% | nt | -12.7%[46.1 µM]
Cc1c(C(=O)N2CCCCC2)sc(NC(=O)C2CC2)c1C#N | -1.8% | 1.1% | 3.2% | 28.6% | -2.0% | -1.7% | 0.8% | 10.1%
Cn1c(SCC(=O)N2CCOCC2)nnc1-c1cnccn1 | 4.6% | 3.2% | 1.4% | -10.5% | 4.2% | 2.6% | 2.9% | 10.0%
CCOc1ccc(-n2cc(C(=O)NC(C)C)c3cc(OC)c(OC)cc3c2=O)cc1 | ? | -22.3% | -4.6% | -23.5% | -3.2% | 6.7% | 1.6% | -1.4%
CCCn1c(=O)c(C(=O)Nc2nnc(CC)s2)c(O)c2ccccc21 | ? | -34.3% | nt | nt | nt | 0.0% | -1.9% | nt
CC(C)Oc1cccc(NC(=O)C2CCN(S(=O)(=O)Cc3ccccc3)CC2)c1 | 0.6% | nt | -1.3%[46.1 µM] | ? | nt | nt | -4.4% | -2.3%[46.1 µM]
O=[N+]([O-])c1ccc(CN2CCN(c3ccc(F)cc3)CC2)o1 | nt | -12.8% | nt | -15.1% | -7.5% | -17.2% | nt | nt
O=C1N(CN2C(=O)C3(OCCO3)c3ccccc32)c2ccccc2C12OCCO2 | 4.4% | 1.5% | -1.3% | -17.4% | 11.7% | 5.7% | -5.3% | ?
COc1cc(OC)cc(C(=O)NCC(=O)OCC(=O)N2CCc3ccccc32)c1 | nt | nt | -1.2% | -7.1% | 8.5% | 1.5% | nt | 13.6%
CCOC(=O)C1=C(N)OC2=C(C(=O)CC(C)(C)C2)C1c1ccccc1OC (centres undefined) | nt | 2.9% | 4.4% | -23.6% | 0.8% | -0.8% | nt | 5.8%
CN(C)S(=O)(=O)c1cccc(NC(=O)COC(=O)c2ccc(Br)o2)c1 | 0.9% | -2.4% | 4.9% | -0.8% | 10.9% | 0.8% | -1.8% | -27.4%[46.1 µM]
CCc1ccc(/C=C2\SC(=S)N(CCCC(=O)Nc3ccccn3)C2=O)cc1 | -24.9% | ? | 11.2µM* | 20µM* | -7.7% | 7.7% | 0.5% | ?
COc1ccc(OC)c(/C=N/NC(=O)c2csc3ccccc23)c1 | -29.5% | 0.2% | 5.3% | -9.9% | -0.9% | -2.5% | -5.0% | 6.0%
O=C(NC1CCN(S(=O)(=O)c2ccc(F)cc2)CC1)c1ccc(F)cc1 | nt | 17.1% | nt | -20.8% | -14.2% | -1.9% | nt | nt
COc1ccc(CN=C2NN=C(c3ccc(Cl)cc3)CS2)cc1 | nt | nt | 1.7% | 52.8%[activator] | -13.8% | -1.5% | nt | 22.9%[46.1 µM]

Single entries from above.
`CCOC(=O)C1CCN(C(=O)CN2c3ccc(C(C)C)cc3-c3ccccc3S2(=O)=O)CC1` in Lassa entry inh shows -13.5%[46.1 µM]
`CC(=O)Nc1ccc(S(=O)(=O)N(C)CC(=O)N(C)Cc2sccc2C)cc1` in Lassa entry inh shows -11.3%

Remaining list, next part
SMILES | Cruzain inh noDet | NS1 inh | Lassa entry inh | StopGo reporter | RE007 growth inh | SARS PLpro yeast | Cruzain Triton | Marburg entry inh
CC(C)(C)c1ccc(OCC(=O)NCc2ccco2)c(Br)c1 | ? | -67.9% | 1.4% | -4.8% | ? | -17.2% | -20.7% | ?
O=C1C=C(c2ccc(Cl)cc2)C(=O)N1Nc1ccccc1 | -0.8% | -196.3% | ? | -10.2% | ? | -37.8% | 0.7% | ?
COc1ccc(NC(=O)Cn2c(=O)n(CCC(=O)NCc3ccccc3OC)c(=O)c3ccccc32)cc1Cl | -20.0% | nt | -4.8%[46.1 µM] | ? | nt | nt | 0.3% | 10.2%[46.1 µM]
COC(=O)Nc1ccc(C)cc1NC(=O)OC | -1.1% | 6.1% | ? | 3.3% | -10.6% | -4.8% | 0.1% | 11.9%
CNc1ccc(Br)cc(C(=O)/C=C/c2cccc(OC)c2)c1=O | 13.2% | 16.0% | ? | ? | -19.9% | -9.6% | -19.1% | ?
CC12CC[C@H]3[C@@H](CCC4(O)C[C@H](O)CCC34/C=N/NC(=O)Cc3ccccc3)C1(O)CCC2C1=CC(=O)OC1 (some centres undefined) | nt | -6.3% | ? | 11.1% | 13.7% | 0.1% | nt | ?
CCCCn1c(N)c(N(CC(C)C)C(=O)CSCC(=O)Nc2ccc(C)cc2)c(=O)[nH]c1=O | nt | nt | -0.4% | -6.0% | -8.6% | -2.2% | nt | 8.8%
CCOC(=O)C1CCN(C(=O)c2ccc3c(c2)NC(=O)/C(=C/c2ccccc2)S3)CC1 | nt | 18.7% | nt | -5.8% | 14.9% | -5.5% | nt | nt
CC1Sc2ccc(S(=O)(=O)N3CCN(c4cccc(Cl)c4)CC3)cc2NC1=O (centres undefined) | nt | 20.2% | nt | ? | -2.6% | 0.0% | nt | nt
O=C(Nc1ccc(C(=O)NCC2CCN(Cc3ccccc3F)CC2)cc1)C1=CSCCO1 | nt | 5.0% | nt | 5.9% | 2.2% | -3.4% | nt | nt
O=C(NC(Cc1ccccc1)C(=O)O)/C(=C/c1ccc([N+](=O)[O-])cc1)NC(=O)c1ccco1 (centres undefined) | nt | -16.2% | 2.0%[46.1 µM] | 17.5% | 20.5% | 6.4% | nt | ?
Cc1ccc(N2CC(C(=O)Nc3nnc(SCC(=O)NCC4CCCO4)s3)CC2=O)cc1C (centres undefined) | nt | 9.3% | 13.7% | -13.3% | 9.7% | -0.5% | nt | -1.5%
Cc1cccc(N2CCN(C(=O)COc3ccc4ccc(=O)oc4c3)CC2)c1C | nt | -0.1% | nt | ? | -9.1% | -21.8% | nt | nt
O=C(N/N=C/c1ccc(OC(F)F)cc1)c1ccc(Br)cc1 | -4.5% | -0.2% | ? | 23.1% | 5.0% | -13.8% | -3.8% | 2.0%
Cc1ccc(C)c(NC(=O)Cn2nnc(C(=O)Nc3c(C)cccc3C)c2N)c1 | -0.1% | -11.8% | 12.2% | -14.3% | 5.6% | 2.0% | 3.0% | 2.0%[46.1 µM]
COCCCNCCOc1ccc(C)cc1[N+](=O)[O-] | -8.1% | -1.3% | 11.4% | -2.2% | 10.2% | -21.3% | -3.9% | -26.7%
OCC1CCCN(C(=S)Nc2ccc(Nc3ccccc3)cc2)C1 (centres undefined) | nt | 9.0% | ? | 20.6% | 18.7% | -1.1% | nt | ?
CCOC(=O)CCn1c(=O)c2cccn2c2cccnc21 | 4.9% | nt | 14.6%[46.1 µM] | -16.1% | nt | nt | -5.1% | -12.5%[46.1 µM]
Nc1nonc1-n1nnc(C(=O)N/N=C/c2cccc(Cl)c2)c1-c1cccs1 | nt | 0.8% | -3.0%[46.1 µM] | -6.1% | -8.0% | 27.2% | nt | 22.1%[46.1 µM]
c1ccc(N(c2ccccc2)c2nc(-n3ccnc3)nc(-n3ccnc3)n2)cc1 | -1.4% | -220.3% | ? | ? | -2.9% | -25.4% | -6.7% | ?
c1ccn2cc(CSc3nnc4ccccn34)nc2c1 | 3.9% | 2.0% | -1.7% | nt | -2.4% | 5.2% | 13.1% | ?
